BJeLR viab HTS = compounds reducing viability of BJeLR cells. BJeLR fibroblasts viability, CellTiterGlo ATP luminescence, 48 h; HRASV12, hTERT and SV40 LT/ST transformed. viability loss activity score, % (no concentration beside the values). 0.64% of 30,000 active; in the data active = viability loss activity score above about 50%; about a fifth of its hits are not listed in these tables;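 note: higher score means fewer live cells and less ATP luminescence; stock transfer was 50 or 100 nL into about 30 µL; 0% = vehicle wells and 100% = a reference killing control; one replicate is shown; the record names a cut of 85%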
A1 inh = A1 inhibition; MEF A1-2A-BIM cells, caspase-Glo luminescence, 3 h; percent of clofoctol signal, DMSO as zero; caspase activation, % (no concentration beside the values); 0.51% of 21,000 active;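 active = most replicate scores above 10, or exactly half above 10 with mean activity above 10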;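 note: effector caspase 3 and 7 activity cleaving a DEVD luciferin substrate; 50 nL library stock added to about 30 µL; numbers are from one replicate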
* hit, by the source's call; . = no result given; & = joins results of further samples. Some of the compounds tested; the hit share may differ from the screen's.

SMILES	A1 inh	BJeLR viab HTS
C[C@H]1CN([C@@H](C)CO)C(=O)c2cccc(NS(=O)(=O)c3cccs3)c2O[C@@H]1CN(C)Cc1ccc(C(=O)O)cc1	.	3.3
CCC(C(=O)Nc1c(C)n(C)n(-c2ccccc2)c1=O)c1ccccc1 (stereo not given)	0.9	-1.3
COC(=O)c1ccccc1NC(=O)CSc1nc2ccsc2c(=O)n1Cc1ccc(C)cc1	1.4	2.7
Brc1ccc(C2=Nn3c(Cn4nnc5ccccc54)nnc3SC2)cc1	1.3	1.9
Cc1ccc(CNc2ccc(C(=O)O)cc2)cc1	-0.6	-2.3
CC(=O)N/C(=C\c1ccccc1)C(=O)Nc1cccc(C#N)c1	0.0	9.1
Cc1ccc(S(=O)(=O)N(C)C[C@@H]2Oc3c(NS(=O)(=O)c4ccc(F)cc4)cccc3C(=O)N([C@@H](C)CO)C[C@@H]2C)cc1	.	-6.6
COc1cc2ccc(=O)oc2c(O)c1OCC=C(C)C	-0.2	1.9
Cc1ccc2oc(=O)c3cc(C(=O)NC4CCCC4)sc3c2c1	.	4.6
S=c1[nH]n(-c2ccc(Cl)cc2)c(=S)s1	-0.6	-4.0
Cc1cc(C)c2c(N)c(S(=O)Cc3ccc(Cl)cc3)sc2n1 (stereo not given)	-0.8	-2.5
C[C@@H]1CN([C@@H](C)CO)C(=O)c2cc(NC(=O)Nc3ccc(C(F)(F)F)cc3)ccc2O[C@H]1CN(C)CC1CCCCC1	1.2	0.8
C[C@@H]1CN([C@@H](C)CO)C(=O)c2cccc(NC(=O)Nc3ccc4c(c3)OCO4)c2O[C@@H]1CN(C)C(=O)Nc1cccc2ccccc12	.	-1.4
COc1cc(C(=O)NCc2cccnc2)ccc1OCc1ccc(Cl)cc1	-0.8	0.2
Cc1cc(C(=O)Nc2cccc3c2O[C@H](CN(C)C(=O)Nc2ccc(C(F)(F)F)cc2)[C@H](C)CN([C@@H](C)CO)C3=O)n(C)n1	.	-4.2

Continued; it opens with the five that closed the last part.
SMILES	A1 inh	BJeLR viab HTS
Cc1cc(C)c2c(N)c(S(=O)Cc3ccc(Cl)cc3)sc2n1 (stereo not given)	-0.8	-2.5
C[C@@H]1CN([C@@H](C)CO)C(=O)c2cc(NC(=O)Nc3ccc(C(F)(F)F)cc3)ccc2O[C@H]1CN(C)CC1CCCCC1	1.2	0.8
C[C@@H]1CN([C@@H](C)CO)C(=O)c2cccc(NC(=O)Nc3ccc4c(c3)OCO4)c2O[C@@H]1CN(C)C(=O)Nc1cccc2ccccc12	.	-1.4
COc1cc(C(=O)NCc2cccnc2)ccc1OCc1ccc(Cl)cc1	-0.8	0.2
Cc1cc(C(=O)Nc2cccc3c2O[C@H](CN(C)C(=O)Nc2ccc(C(F)(F)F)cc2)[C@H](C)CN([C@@H](C)CO)C3=O)n(C)n1	.	-4.2
Cc1ccc(S(=O)(=O)Nc2ccc3c(c2)C(=O)N([C@H](C)CO)C[C@@H](C)[C@H](CN(C)C(=O)NC2CCCCC2)O3)cc1	-0.2	-2.9
COc1ccc(CN(C)C[C@H]2Oc3c(NC(=O)Nc4ccc(C(F)(F)F)cc4)cccc3C(=O)N([C@H](C)CO)C[C@@H]2C)cc1	.	-1.5
C[C@H](CO)N1C[C@H](C)[C@H](CN(C)Cc2ccccc2)Oc2ccc(NS(=O)(=O)c3cccs3)cc2C1=O	3.7	1.3
CCC(C)(C)NC(=S)Nc1cccc(OC)c1	0.5	-1.3
CSc1c(CC(=O)NCCc2ccccc2)n(C)c2ccccc12	1.1	1.9
CC(C)(C)OC(=O)N1C[C@@H]2C(NC(=O)c3nsc(Cl)c3Cl)[C@@H]2C1 (stereo not given in full)	.	-8.1
CN1CCN(CCCN2c3ccccc3Sc3ccc(Cl)cc32)CC1	1.0&1.1	1.5&3.2
Cc1ccc(Oc2ncccc2NC(=O)C(=S)NCc2ccccc2)c2c1CCC2	-0.8	-2.0
CC(=O)N(Cc1ccccc1)C1CCCc2c1[nH]c1ccc(C)cc21 (stereo not given)	0.8	-1.1
C[C@H](CO)N1C[C@H](C)[C@H](CN(C)C(=O)Nc2ccc(F)cc2)Oc2c(NC(=O)c3ccncc3)cccc2C1=O	.	0.9
C[C@@H]1CN([C@@H](C)CO)C(=O)c2cc(NC(=O)Cc3ccccc3)ccc2O[C@H]1CN(C)Cc1ccc(C(=O)Nc2ccccc2N)cc1	.	2.6
COc1cc(NC(=O)N2CCOc3ccccc32)cc(OC)c1OC	-0.3	-3.7
COc1ccc(-c2cc(C(=O)NC3CCCCC3C)c3ccccc3n2)cc1 (stereo not given)	-0.5	-0.6
C=C1C(=O)O[C@H]2[C@H]1[C@@H](OC(=O)/C(C)=C\C)C(OC(C)=O)/C(C(=O)OC)=C\CC[C@@]1(C)O[C@H]21 (stereo not given in full)	2.8	68.1*
CCCc1nc(NCc2ccccc2)c(C#N)c2c1CCCC2	1.3	-1.4
CCOC(=O)C1CCN(/C=C(\C#N)S(=O)(=O)c2ccccc2)CC1	0.4	0.4
O=C(NCCc1ccccc1)c1nnc(-c2ccccc2)o1	.	-3.0
CCn1c(O)c(C2=NC(=S)NC2=O)c2ccccc21	0.4	0.0
CC(C)NC(=O)N(C)C[C@H]1Oc2ccc(NS(C)(=O)=O)cc2C(=O)N([C@H](C)CO)C[C@@H]1C	0.1	-0.7
C[C@H](CO)N1C[C@H](C)[C@H](CN(C)Cc2ccc(C(=O)Nc3ccccc3N)cc2)Oc2ccc(NS(=O)(=O)c3ccccc3)cc2C1=O	.	1.5
C[C@@H]1CN([C@@H](C)CO)C(=O)c2cc(NC(=O)NC3CCCCC3)ccc2O[C@@H]1CN(C)Cc1ccccc1	0.8	-4.1
CCOC(=O)c1c(NC(=O)CSc2cc(C)c3ccccc3n2)sc2c1CCC2	-0.4	-4.1
Cc1nn(C(=O)C2CCCN2S(=O)(=O)c2ccccc2)c(C)c1Sc1ccccc1 (stereo not given)	.	3.4
CCc1ccc(NC(=O)Nc2cccs2)cc1	-7.9	-0.9
C[C@@H]1CN([C@@H](C)CO)C(=O)c2cccc(NC(=O)c3ccc(-c4nccs4)cc3)c2O[C@@H]1CN(C)CC1CCCCC1	.	4.0
C[C@@H]1CN([C@@H](C)CO)C(=O)c2cccc(NS(=O)(=O)c3ccc(F)cc3)c2O[C@@H]1CN(C)C	.	-0.4
Cc1cc(N2CCOCC2)nc2ccc(NC(=S)NCCC(C)C)cc12	.	2.1
C[C@H]1CN([C@@H](C)CO)C(=O)c2cc(NC(=O)Nc3ccc(F)cc3)ccc2O[C@@H]1CN(C)Cc1ccccc1	0.9	2.3
COc1ccc(S(=O)(=O)Nc2cccc3c2O[C@@H](CN(C)C(=O)Nc2ccccc2)[C@H](C)CN([C@@H](C)CO)C3=O)cc1	.	0.8
C[C@@H]1CN([C@@H](C)CO)C(=O)c2cc(NS(=O)(=O)c3cn(C)cn3)ccc2O[C@H]1CN(C)C(=O)Nc1ccc(C(F)(F)F)cc1	0.5	5.0
NS(=O)(=O)c1cc2c(cc1Cl)NC(C1CC3C=CC1C3)NS2(=O)=O (stereo not given)	1.6	3.8
C[C@H]1CN([C@@H](C)CO)C(=O)c2cc(NC(=O)c3ccncc3)ccc2O[C@H]1CN(C)Cc1ccc(Cl)c(Cl)c1	-0.2	4.7
C[C@@H]1CN([C@@H](C)CO)C(=O)c2cc(NC(=O)Cc3cn(C)c4ccccc34)ccc2O[C@H]1CN(C)Cc1ccccc1	0.4	-7.6
O=C(Nc1ccc(OC(F)(F)F)cc1)N1CCN(C(c2ccccc2)c2ccccc2)CC1	-0.4	0.9
COc1ccc(C(=O)Nc2cccc(-c3nc4ccccc4s3)c2)cc1	-1.0	-3.0
CCOC(=O)c1c(NC(=O)NCc2ccccc2)sc2c1CCC2	.	-1.9
CNC[C@@H]1Oc2c(NS(=O)(=O)c3cn(C)cn3)cccc2C(=O)N([C@@H](C)CO)C[C@@H]1C	.	1.6
C[C@@H]1CN([C@H](C)CO)C(=O)c2cccc(NC(=O)Nc3ccc4c(c3)OCO4)c2O[C@H]1CN(C)S(=O)(=O)c1cccs1	.	-1.5
CCc1ccc(NC(=O)C(CC)Sc2nc3ccsc3c(=O)n2C2CC2)cc1 (stereo not given)	-0.5	-11.1
Cc1ccc(S(=O)(=O)N(C)C[C@@H]2Oc3ccc(NC(=O)C4CC4)cc3C(=O)N([C@@H](C)CO)C[C@@H]2C)cc1	-0.4	-3.5
C[C@H]1CN([C@@H](C)CO)C(=O)c2cccc(NS(=O)(=O)c3ccc(Cl)cc3)c2O[C@@H]1CN(C)Cc1ccccc1	.	-5.0
C[C@@H]1CN([C@@H](C)CO)C(=O)c2cc(NC(=O)CCCN(C)C)ccc2O[C@@H]1CN(C)S(=O)(=O)c1ccc(F)cc1	-0.2	-2.3
C[C@H]1CN([C@@H](C)CO)C(=O)c2cccc(NC(=O)C3CC3)c2O[C@@H]1CN(C)Cc1ccc(Oc2ccccc2)cc1	.	-1.1
Nc1nc2ccccc2n1C(=O)c1ccco1	.	22.8
C[C@@H]1CN([C@@H](C)CO)C(=O)c2cccc(N(C)C)c2O[C@@H]1CN(C)S(=O)(=O)c1ccc(Cl)cc1	.	2.4
O=C(O)c1c(CNCCc2ccc(Cl)cc2)c2ccccc2n1Cc1ccccc1	1.0	2.6
CC(C)NC(=O)Nc1cccc2c1O[C@@H](CN(C)CC1CCCCC1)[C@H](C)CN([C@@H](C)CO)C2=O	.	0.1
Cc1c(C)c(C)c(CS(=O)(=O)CC(=O)Nc2ccc(F)c(Cl)c2)c(C)c1C	1.2	-0.2
COc1ccc(S(=O)(=O)Nc2ccc3c(c2)C(=O)N([C@H](C)CO)C[C@@H](C)[C@@H](CN(C)CC2CCCCC2)O3)cc1	0.1	6.8
COc1cccc(NC(=O)Nc2nncs2)c1	-1.1	3.7
C[C@@H]1CN([C@H](C)CO)C(=O)c2cc(NC(=O)Nc3ccccc3)ccc2O[C@@H]1CN(C)Cc1ccc(Oc2ccccc2)cc1	-0.2	-1.3
Cc1nn(-c2ccccc2)c(C)c1Sc1ccccc1	0.4	3.8
CN(C(=O)C1c2ccccc2C(=O)N2CCc3ccccc3C12)C1CCCCC1 (stereo not given)	.	-0.8
CCOc1ccc(Cc2nccc3cc(OCC)c(OCC)cc23)cc1OCC	-1.6	0.7
CC(C)CNC(=S)N1CCCC1	1.0	-4.6
COc1ccc(NC(=O)Nc2cccc3c2O[C@@H](CN(C)S(=O)(=O)c2ccc(OC)cc2)[C@@H](C)CN([C@@H](C)CO)C3=O)cc1	.	-0.1
CNC[C@@H]1Oc2ccc(N)cc2C(=O)N([C@@H](C)CO)C[C@H]1C	0.1	-0.9
COc1ccc(NC(=O)Nc2ccc3c(c2)C(=O)N([C@@H](C)CO)C[C@@H](C)[C@H](CN(C)C(=O)Nc2c(C)noc2C)O3)cc1	-0.5	3.9
Cc1cccc(NC(=O)C(NC(=O)c2ccc(C34CC5CC(CC(C5)C3)C4)cc2)C(C)C)n1 (stereo not given)	.	1.4
C[C@H](CO)N1C[C@H](C)[C@@H](CN(C)C(=O)Nc2cccc3ccccc23)Oc2ccc(NC(=O)C3CC3)cc2C1=O	0.2	2.9

More results.
SMILES	A1 inh	BJeLR viab HTS
NC(N)=NC(N)=Nc1cccc(Cl)c1	-1.2	0.8
C[C@@H]1CN([C@H](C)CO)C(=O)c2cc(NC(=O)Nc3ccc(C(F)(F)F)cc3)ccc2O[C@H]1CN(C)S(=O)(=O)c1ccccc1	2.2	1.0
Cc1ccc(SC(C)C(=O)c2ccc(C)c(Cl)c2)cc1 (stereo not given)	-0.1	-1.5
C[C@H](CO)N1C[C@H](C)[C@H](CN(C)S(=O)(=O)c2ccc(F)cc2)Oc2ccc(NC(=O)Cc3ccccc3)cc2C1=O	0.0	1.4
CCn1c2ccc(Cl)cc2c2cc(Cl)ccc21	0.3	-1.2
Cc1noc(C)c1NC(=O)Nc1ccc2c(c1)C(=O)N([C@@H](C)CO)C[C@H](C)[C@H](CN(C)S(=O)(=O)c1ccc(Cl)cc1)O2	-0.9	-0.4
C[C@H]1CN([C@@H](C)CO)C(=O)c2cc(NC(=O)C3CC3)ccc2O[C@@H]1CN(C)C(=O)Nc1ccc2c(c1)OCO2	-0.4	-0.6
Cc1ccc(S(=O)(=O)Nc2ccc3c(c2)C(=O)N([C@@H](C)CO)C[C@@H](C)[C@@H](CN(C)C(=O)Nc2ccc(C(F)(F)F)cc2)O3)cc1	0.6	-0.5
O=C(NCCCN1CCCC1)c1cnn(-c2ccccc2)c1-n1cccc1	2.2	2.0
CC(C)(C)S(=O)(=O)/C(C#N)=C/c1sccc1C1OCCO1	0.6	0.0
O=C(c1cccc(S(=O)(=O)NC2CCCCCC2)c1)N1CCCc2ccccc21	-0.9	3.7
CN(C)/C=C/C=C1C(=O)CCCC1=O	.	-0.1
COC(=O)N(C)c1ccc(C(O)(C(F)(F)F)C(F)(F)F)cc1	0.7	0.9
CC(C)n1c(C(F)(F)F)nc2cc(C(=O)Nc3ccc(Cl)cc3)ccc21	0.2	2.0
COc1ccc(C2SCC(=O)N2CCCN(C)C)cc1OC (stereo not given)	0.9	1.3
CC(C)n1nnc2c(=O)oc3ccccc3c21	0.2	-3.0
CSc1nnc(-c2cc(OCC(F)(F)F)nc(OCC(F)(F)F)c2)n1Cc1ccco1	0.6	0.1
N#CC1=C(N)N2CCSC2=NC1(C(F)(F)F)C(F)(F)F	0.4	0.4
